Bioassay records: PubChem, National Center for Advancing Translational Sciences (NCATS)
gsp agonist: agonists of gsp mutant (McCune-Albright syndrome); gsp mutant cells, cAMP HTRF, 30 min; control for the full effect not named in the record; Potency, µM (titrated, usually from 76.9 µM), for inactives: top-dose activation (cAMP increase), usual class: activators; 340,000 compounds, 0.13% hits; AID 624287; active = well fitted activation curve with a large enough effect; inconclusive = small, poorly fitted or top-dose-only effect, or another doubt; inactive = no such curve, though single readings can be large or run the other way; cell line not stated here;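 note: phosphodiesterase inhibitor Ro 20-1724 added with compounds to block cAMP breakdown; potency is the fitted concentration of half-maximal effect; nearly all actives have a fitted effect of over 60% in size; about a fifth of the inactives were tested at one dose only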
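Cells stably selected in G418 were plated at 2000/well, grown 16-24 hr, then given compounds in DMSO with the PDE inhibitor […] (300 uM solution added) for 30 min at 37C; cAMP was read by HTRF.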
Sfp PPTase inh: Sfp phosphopantetheinyl transferase inhibition; Biochemical Sfp PPTase activity, qHTS; Potency, µM, without a hit: max response, negative = inhibition, usual class: inhibitors; 310,000 compounds, 3.5% hits; AID 1490; active = well fitted inhibition curve with a large enough effect; inconclusive = small, poorly fitted or top-dose-only effect, or another doubt; inactive = no such curve, though single readings can be large or run the other way;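 note: the enzyme is Sfp with the accession as filed and its product quenches rhodamine fluorescence; potency is the fitted concentration of half-maximal effect; 0% = enzyme reaction without inhibitor and -100% = no enzyme wells; top concentration of the series not given in the record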
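Buffer: 50 mM Hepes-Na pH 7.6, 10 mM MgCl2, 0.01% Nonidet P-40, 0.01% BSA. Enzyme 15 nM, pre-exposed to compound 15 min; substrates then added and fluorescence change tracked over 30 min.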
TRPV1 PAM: enhances activation of the human vanilloid receptor TRPV1; potentiation, % at 8.33 µM; TRPV1-expressing cells, Fluo-8 calcium influx, capsaicin EC20 potentiation; host cell line not named in the record; control for the full effect not named in the record; Q8NER1; 320,000 compounds, 0.02% hits; active means potentiation above 80%; inconclusive means 30% to 80%; inactive means below 30%; note: 0% is about no effect
Target sequence (Q8NER1 whole entry, looked up): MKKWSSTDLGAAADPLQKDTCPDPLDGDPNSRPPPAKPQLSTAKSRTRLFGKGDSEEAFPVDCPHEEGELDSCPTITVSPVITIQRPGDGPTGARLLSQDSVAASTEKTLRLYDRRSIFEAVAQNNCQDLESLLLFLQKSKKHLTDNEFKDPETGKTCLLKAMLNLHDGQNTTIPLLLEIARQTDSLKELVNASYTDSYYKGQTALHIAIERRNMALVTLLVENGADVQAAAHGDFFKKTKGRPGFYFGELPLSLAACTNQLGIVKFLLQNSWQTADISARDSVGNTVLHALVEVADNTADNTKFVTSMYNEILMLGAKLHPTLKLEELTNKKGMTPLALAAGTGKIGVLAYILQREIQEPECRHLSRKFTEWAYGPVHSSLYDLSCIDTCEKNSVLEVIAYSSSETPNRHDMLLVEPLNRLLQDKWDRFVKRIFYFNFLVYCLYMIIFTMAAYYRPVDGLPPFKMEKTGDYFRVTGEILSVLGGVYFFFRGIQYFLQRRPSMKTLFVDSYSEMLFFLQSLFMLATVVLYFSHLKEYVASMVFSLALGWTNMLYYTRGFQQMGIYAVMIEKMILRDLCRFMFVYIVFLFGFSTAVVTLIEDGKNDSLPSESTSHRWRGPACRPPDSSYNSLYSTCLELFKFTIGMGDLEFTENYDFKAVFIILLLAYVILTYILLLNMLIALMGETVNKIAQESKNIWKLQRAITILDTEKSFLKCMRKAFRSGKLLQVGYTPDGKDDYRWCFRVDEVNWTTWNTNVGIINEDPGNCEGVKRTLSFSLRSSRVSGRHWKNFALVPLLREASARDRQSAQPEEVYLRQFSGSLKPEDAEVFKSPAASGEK
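Fluo-8 calcium influx in TRPV1-expressing cells, kinetic read (ex 480/em 520 nm). Compound added and read 3 min for agonist activity, followed by capsaicin at EC20 final and 2 min further read for enhancement.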
gsp antag: gsp mutant antagonism. gsp-mutant cells, cAMP HTRF, 30 min; control for the full effect not named in the record. Potency, µM (series often up to 76.9 µM), inactives show at the highest dose activity change, negative = inhibition, most hits filed as inhibitors. 340,000 compounds, 0.4% hits. AID 624288; active = falling curve of any shape with a large fitted effect; inconclusive = falling curve, mostly with a smaller effect; inactive = flat or rising curve; cell line not stated here;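 note: intracellular cAMP measured with PDE inhibitor Ro 20-1724 present during compound exposure; potency is the fitted concentration of half-maximal effect; % is set by controls: 0 for no effect and ±100 for the full control effect; nearly all actives have a fitted effect of over 65% in size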
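Measurement of cellular cAMP by homogeneous time-resolved fluorescence following a 30 min compound exposure at 37C. The PDE inhibitor […] was present throughout; the assay buffer was DPBS with 0.05% BSA and 0.005% Tween 20.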
Menin MLL FP FL: menin-MLL binding inhibition, fluorescein peptide. Fluorescence polarization, fluorescein-MLL peptide displacement from menin. FP activity change, % at 61.4 µM. 290,000 tested, under 10 active; inconclusive = falling polarisation curve, or a change in total fluorescence; inactive = total fluorescence flat and polarisation flat or rising; no compound was filed as active; the % refers to the polarisation; negative = inhibition;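 note: % of control where 0% means no effect; inhibitors lower the polarisation; unlabelled MLL peptide was the positive control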
CtBP-E1A blk: CtBP/E1A binding inhibition; AlphaScreen GST-E1A/His-CtBP binding, 1536-well; active compounds read low; control for the full effect not named in the record; activity change, % (concentration not given with the values); 340,000 compounds, 0.49% hits; in the data active means activity change below about -65%; inconclusive means about -30% to -65%; inactive means above about -30%; note: % is set by controls: 0 for no effect and ±100 for the full control effect
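GST-E1A and His-tagged CtBP (125 nM each as 5X stock) were preincubated with pin-transferred compound for 2 h at 37 °C in the dark, then glutathione donor and nickel acceptor beads were added for 1 h before AlphaScreen reading.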
ClpP mod: qHTS Assay for Activators of ClpP | purified B. subtilis ClpP, FRET peptide cleavage, 20 min | Potency, µM (top dose mostly 57.5 µM), for inactives: top-dose activity change, negative = active | 340,000 compounds, 1.9% hits | AID 651965, 2013; active = well fitted falling curve with a large enough effect; inconclusive = small, poorly fitted or top-dose-only effect; inactive = no such curve, though single readings can be large or run the other way; note: potency is the fitted concentration of half-maximal effect; the source files actives as falling curves though it sought activators and does not explain the sign; nearly all actives have a fitted effect of over 65% in size; many hits overshoot -100%
Target sequence (P80244 whole entry, looked up): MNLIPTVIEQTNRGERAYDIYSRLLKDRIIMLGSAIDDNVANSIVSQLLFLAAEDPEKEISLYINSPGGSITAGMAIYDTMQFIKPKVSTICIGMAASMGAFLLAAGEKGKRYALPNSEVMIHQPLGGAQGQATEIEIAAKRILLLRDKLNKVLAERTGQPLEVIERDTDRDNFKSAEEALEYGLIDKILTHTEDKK
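Purified B. subtilis ClpP, 10 microg/mL final in Tris/HCl pH8 with KCl, BSA, glycerol and Tween-20, cleaved an Abz/nitrotyrosine-quenched decapeptide. Fluorescence (ex 320, em 430) was read at 0 and 20 min at room temperature. Delta was normalized to 5.8 microM ADEP and DMSO/no-enzyme controls.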
* hit, by the source's call; ? = inconclusive; · = no result given; & = joins results of further samples; [ ] = remark or other dose.

SMILES	gsp agonist	Sfp PPTase inh	TRPV1 PAM	gsp antag	Menin MLL FP FL	CtBP-E1A blk	ClpP mod
O=C(O)c1ccn2c(C(=O)c3ccccc3)c(-c3ccccc3)cc2c1	6%[15.4 µM]	-1%	14	-23%	1.3	-2	·
COc1ccc(NC(=O)c2nc[nH]c2C(=O)NCc2ccccc2)cc1	·	·	5	-1%	·	-5	0.2%
Cc1ccccc1C1c2[nH]c3ccccc3c2CCN1C(=O)c1ccc(=O)n(C)n1 (stereo not given)	5%	-18%	2	0%	3.2	23	·
CS(=O)(=O)N(CC(=O)Nc1c(F)cccc1F)Cc1ccccc1	-23%	16%	-5	5%	1.2	-5	2.2%
CCCCOP(=O)(c1ccc(N(C)C)cc1)C(O)c1cc(OC)c(OC)c(OC)c1 (stereo not given)	-16%[15.4 µM]	3%	-6	4%	2.6	4	1.2%
CCOC(=O)c1ccc(NC(=O)CCCN2C(=O)NC3(CCCC3)C2=O)cc1	-65%[inhibitor]	·	-22	9%	·	7	1.1%
COc1ccc(N2C(=O)CC(Nc3ccc(C)cc3)C2=O)cc1 (stereo not given)	24%	17%	4	-2%	?	-4	-0.8%
CCOc1ccc(Nc2oc(-c3ccc(Cl)cc3)nc2C#N)cc1	-3%	-14%	0	3%	3.1	-3	?
COc1ccc(CC(=O)OCC(=O)N2CCc3ccccc32)cc1OC	3%	·	16	7%	·	10	1.3%
CCCCN1C(=O)C2(OCCCO2)c2cccc(C)c21	-18%[15.4 µM]	27%	-7	5%	-1.6	3	?
O=C(Nc1ccc(N2CCOCC2)cc1)C1CCN(S(=O)(=O)c2ccccc2F)CC1	5%	-1%	-26	-4%	0.9	·	1.6%
CCOc1ccc(OCCCCN2CCCC2)cc1	1%	?	6	11%	1.4	-6	-3.3%
OCCC1CN(Cc2cc(F)ccc2F)CCN1CCCc1ccccc1 (stereo not given)	-7%	9%	30	6%	-3.1	-6	-2.8%
NC(=O)CC(NC(=O)c1ccccc1)c1ccc(N2CCc3ccccc3C2)c([N+](=O)[O-])c1 (stereo not given)	-23%	-6%	0	-6%	1.2	-11	-1.3%
CCCS(=O)(=O)N1CCN(Cc2ccc([N+](=O)[O-])cc2)CC1	8%	?	-1	11%	-1.0	7	0.5%
Cc1nn(Cc2ccccc2)c(Cl)c1/C=C/C(=O)OC(C)C(=O)N1CCCC1 (stereo not given)	-7%	-15%	-3	-4%	3.0	·	2.8%
CN(C)c1ccc(/C=N/NC(=O)CN(c2cccc(Cl)c2)S(C)(=O)=O)cc1Br	0%	2%	0	-23%	-1.1	-6	-5.1%
CC(C)c1nc2sc3c(SCC(N)=O)ncnc3c2c2c1CCC2	-1%[15.4 µM]	21%	-4	24%	-0.2	-15	·
CC(=O)OCn1ncc(N2CCOCC2)c(Br)c1=O	-1%	21%	4	2%	1.7	5	·
CN(C)C(=O)c1cc2cc(Br)ccc2s1	29%	10%	2	-3%	0.9	0	-0.1%
CC1CC(N(C(=O)c2ccco2)c2ccccc2)c2ccccc2N1 (stereo not given)	26%	8%	-6	-9%	-2.4	-10	-1.6%
CCn1c(CNC(=O)c2ccccc2F)nnc1SCC(=O)Nc1nncs1	30%	-3%	-3	4%	-1.3	-7	·
COc1ccc(NC(=O)/C=C/c2cccc(Br)c2)cn1	-15%[15.4 µM]	-7%	-1	?	?	-16	·
O=C(c1ccc([N+](=O)[O-])o1)N1CCOCC1	-16%[15.4 µM]	9%	-15	·	-2.0	1	·
CC1CCC(C(C)C)C(OC(=O)C[n+]2cc(-c3ccc(Cl)cc3)n3c2CCC3)C1 (stereo not given)	42%	3%	-8	4%	6.6	-2	-0.1%
COCC(C)n1c(COc2ccccc2F)nnc1SCc1c(C)noc1C (stereo not given)	6%	3%	-18	6%	-1.4	3	-0.4%
COc1ccc(C)cc1Nc1nc(C)nc2c1oc1ccccc12	-16%[15.4 µM]	-25%	-16	-2%	1.6	11	·
COc1ccc(C(=O)NCC2(c3ccc(OC)c(OC)c3)CCCC2)c(OC)c1	-27%	8%	-10	?	-6.7	-4	1.8%
CC(C)CC(=O)Nc1cccc(-c2nc3ccccc3o2)c1	-9%	16%	3	6%	3.9	3	?
CCc1nn(CCCN2CCN(c3cccc(Cl)c3)CC2)c(=O)n1CCOc1ccccc1	·	-29%&-12%&-28%&4%	27&-3	-18%&-7%	5.6&-1.8&1.4&3.2	-7&0	2.8%&0.5%
CN1CCCN(S(=O)(=O)c2ccc3ccccc3c2)CC1	-4%[15.4 µM]	19%	2	14%	-1.6	0	·
CC(=O)N1CCOc2ccc(S(=O)(=O)N3CC(C)CC(C)C3)cc21 (stereo not given)	14%	4%	-8	-3%	-0.7	-14	-4.1%
COc1ccc(NC(=O)c2cccs2)cc1	12%	12%	-24	-1%	2.9	24	-11%
O=C(CN1CCOCC1)NN=C(c1ccccc1)c1ccccc1	23%[15.4 µM]	3%	-9	-4%	0.1	9	-2.1%
CN(C)S(=O)(=O)c1cccc(CNCC2COc3ccccc3O2)c1 (stereo not given)	?	-22%	?	5%	-9.5	8	-0.3%
COc1ccc(CN(C(=O)c2cccs2)c2nccs2)cc1OC	9%	15%	15	?	-1.3	8	-0.2%
COc1ccc2c(CC(=O)Nc3ncc(C)s3)coc2c1	-13%	17%	-3	2%	-1.3	0	·
Cc1ccc2c(c1)CCO[C@]21O[C@H](CCO)C[C@H](O)[C@H]1O	-121%[inhibitor]	·	·	·	·	5	-0.6%
Cc1ccsc1/C=N/NC(=O)CNC(=O)c1ccccc1	25%	16%	9	1%	-2.2	·	-2.9%
N#Cc1cccc(NC(=O)COC(=O)c2ccc3c(=O)n4c(nc3c2)CCC4)c1	·	10%	5	·	0.1	·	·
NC(=O)c1ccc(-n2nc(C(F)(F)F)c3c2CCCC3)cc1	29%	-2%	-25	-6%	-0.9	-4	0.4%
NCCS(=O)(=O)NC1CCCCC1	-3%[15.4 µM]	9%	-1	12%	0.3	6	·
COc1cc(C(=O)NCC(=O)NCC2COc3ccccc3O2)cc(OC)c1OC (stereo not given)	7%	·	2	10%	·	-3	-4.4%
Cc1cccc(NC(=O)c2ccc(NCCc3ccccc3)c([N+](=O)[O-])c2)c1	-28%[15.4 µM]	14%	3	3%	8.4	-2	-0.9%
CCn1c(CC(C)C)n[nH]c1=S	-13%	-28%	4	1%	1.9	8	-1.4%
CCOC(=O)C1(Cc2ccc(Cl)cc2)CCN(C(=O)c2ccoc2)CC1	1%	1%	-5	-5%	-1.1	1	·
CCc1cccc(NC(=O)C2CCCN2S(=O)(=O)c2ccc3c(c2)CC(C)N3C(C)=O)c1 (stereo not given)	?	-8%	4	-17%	-6.2	1	1.7%
Cc1ccc(NC(=O)c2nc[nH]c2C(=O)N[C@H](C)c2ccccc2)cc1	·	·	-14	-9%	·	-5	-3.9%
C=CCNC(=O)CN1CCC(c2nc3cc(C)c(C)cc3[nH]2)CC1	-14%	11%	0	7%	3.3	1	·
CC(=O)c1c(C)nc2ccc(C)cc2c1-c1ccccc1	2%[15.4 µM]	18%	-10	-7%	-1.1	-2	·
CC(NC(=O)C(=O)N1CCOCC1)C(c1cccs1)N1CCN(c2ccccc2F)CC1 (stereo not given)	3%	4%	13	8%	·	-5	0.6%
O=C(Oc1ccc(/C=N/NC(=O)c2ccccc2O)cc1)c1ccccc1	6%	?	-4	-12%	-1.8	-1	-9.5%
COc1ccc2nc(SCC(=O)NC3CCCc4ccccc43)[nH]c2c1 (stereo not given)	-39%[inhibitor]	11%	-5	-1%	4.4	2	-1.2%
CCn1c(C)cc(C(=O)CSc2nnnn2C2CCCC2)c1C	-13%	·	-21	7%	·	9	0.9%
CC(=O)c1ccc(OCCCC(=O)Nc2ccc(S(=O)(=O)N3CCOCC3)cc2)cc1	?	·	2	-5%	·	0	1.3%
COC(=O)C(NC(=O)c1ccccc1)=C(C)C	-18%	17%	-1	3%	5.0	6	1.2%
CC(=O)Nc1ccc(NC(=O)COC(=O)C2(c3ccc(Cl)cc3)CCCC2)cc1	-11%	17%	-20	?	0.1	15	-1.1%
COc1ccc(CCn2c(-c3ccc(OC)cc3)nc3c(c(=O)c4ccccc4n3C)c2=O)cc1	-1%	4%	-5	0%	-0.4	1	·
COCCN(C(=O)c1ccccc1F)c1nc(-c2ccc(OC)cc2)cs1	18%[15.4 µM]	3%	3	-27%	2.1	0	-0.5%
CCn1c(SCC(=O)Nc2nc(-c3ccc(C)cc3)cs2)nnc1-c1ccccc1O	7%	9%	17	?	2.9	-6	-9.1%

Rewritten as a markdown table: part of the list above
| SMILES | gsp agonist | Sfp PPTase inh | TRPV1 PAM | gsp antag | Menin MLL FP FL | CtBP-E1A blk | ClpP mod |
| --- | --- | --- | --- | --- | --- | --- | --- |
| CCOC(=O)C1(Cc2ccc(Cl)cc2)CCN(C(=O)c2ccoc2)CC1 | 1% | 1% | -5 | -5% | -1.1 | 1 | · |
| CCc1cccc(NC(=O)C2CCCN2S(=O)(=O)c2ccc3c(c2)CC(C)N3C(C)=O)c1 (stereo not given) | ? | -8% | 4 | -17% | -6.2 | 1 | 1.7% |
| Cc1ccc(NC(=O)c2nc[nH]c2C(=O)N[C@H](C)c2ccccc2)cc1 | · | · | -14 | -9% | · | -5 | -3.9% |

More records.
SMILES	gsp agonist	Sfp PPTase inh	TRPV1 PAM	gsp antag	Menin MLL FP FL	CtBP-E1A blk	ClpP mod
CCOc1ccc(NC(=O)CCNC(=O)c2ccc(Br)cc2)cc1	?	13%	0	10%	-0.6	4	·
Cc1nc(SCC(=O)NC(=O)NC(C)C)nc(C)c1C	-5%[15.4 µM]	3%	-25	·	-0.8	9	·
CCOCCCNC(=O)Cn1cc2c(n1)-c1c(oc(C(=O)N3CCCC3)c1C)CC2	-2%	·	·	·	·	0	0.5%&4.9%
CN1CCC(=NNc2ncnc3sc4c(c23)CCCC4)CC1	0%	10µM*	1	6%	0.8	1	1.5%
COc1ccc(NC(=O)Cn2nnc(C(=O)NCc3ccco3)c2N)cc1	-2%	19%	8	-1%	·	·	0.3%
O=C(/C=C/c1cccc(Cl)c1Cl)OCC(=O)N1CCOCC1	-3%[15.4 µM]	·	-28	11%	·	4	-1.9%
O=C(O)c1ccc2c(c1)S(=O)(=O)c1cc(N3CCN(c4cnccn4)CC3)ccc1C2=O	0%	·	·	·	·	-9	-17%
CCO/C(C)=C1\C(=O)Nc2ccccc21	-17%	6%	0	5%	3.7	-13	-0.2%
